HPGD inh: blocks human HPGD enzyme activity; purified HPGD, NADH fluorescence kinetic, PGE2 substrate; P15428; Potency, µM, inactives show at the top dose activity change, negative = inhibition, usual class: inhibitors; 150,000 tested, 4.3% active; active = well fitted inhibition curve with a large enough effect (not every such curve was filed as active); inconclusive = small, poorly fitted or top-dose-only effect, or another doubt; inactive = no such curve, though single readings can be large or run the other way;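 further: top concentration of the series not given in the record; plate controls included wells without enzyme; inactives centre near -10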
Target sequence (P15428 whole entry, looked up): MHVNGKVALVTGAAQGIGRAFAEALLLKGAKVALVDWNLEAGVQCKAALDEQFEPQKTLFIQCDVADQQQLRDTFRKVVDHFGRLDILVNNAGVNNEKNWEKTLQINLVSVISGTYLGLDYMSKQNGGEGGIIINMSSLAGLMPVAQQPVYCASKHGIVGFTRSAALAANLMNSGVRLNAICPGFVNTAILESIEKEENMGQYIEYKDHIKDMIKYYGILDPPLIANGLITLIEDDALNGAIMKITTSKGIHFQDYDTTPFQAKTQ
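NADH formation kinetics: reaction with 30 uM PGE2 and 1 mM NAD+ (final), 20 nM enzyme, Tris-HCl pH 8 with Tween 20, after 15 min compound preincubation at room temperature. Fluorescence change, last versus first of five reads.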
Starred values were filed as active, the others as inactive; ? = inconclusive. On the % scale 0 is the no-effect control and ±100 the full control effect; potency means the concentration at half of the fitted maximal effect. Not all compounds are listed; rates above refer to the full screens.

HPGD inh	mol
?	CC(C(=O)NCC1CCCO1)N(C(=O)c1snc(C(N)=O)c1N)c1ccccc1 (stereo not given)
-7%	CCNc1nc(Oc2ccc(C(=O)OC)cc2)nc(N(C)C)n1
-19%	CC(C)C(=O)Nc1cccc(C(=O)NCc2ccc3c(c2)OCO3)c1
-19%	CCOc1ccc2nc(NC(=O)CN3CCC(n4nnc5cc(F)ccc54)CC3)sc2c1
-4%	CCn1c(O)c(/C=C2\C=Nc3ccccc32)sc1=Nc1ccc(C)cc1
1%	O=C(CCn1cnc2ccccc2c1=O)Nc1ccc(S(=O)(=O)N2CCCC2)cc1
-1%	CCNc1nc(NC(C)C)nc(N2CC(=O)N(CC(=O)OCC)C2=N)n1
-7%	CCc1c(O)nc(SCC(=O)Nc2ccc(OC)cc2)n(C2CCCCC2)c1=O
-9%	O=C(c1ccccc1)N1CCN(c2ccc([N+](=O)[O-])c(N3CCOCC3)c2)CC1
-18%	O=C(CCCOc1ccccc1)Nc1nccs1
-11%	CNc1ncnc2c1ncn2[C@H]1C[C@H](OP(=O)(O)O)[C@@H](COP(=O)(O)O)O1
-6%	CCNC(=O)CN1C(=O)NC2(CCCc3cc(OC)ccc32)C1=O (stereo not given)
-14%	Cc1ccc(N/C=C(/C#N)c2ccsc2)cc1C
-20%	COc1ccc(C(c2nnnn2Cc2cccs2)N2CCN(c3ccccc3F)CC2)cc1OC (stereo not given)
?	Cc1sc2c(c1C)c(=O)nc1n2Cc2ccccc2-1

For reference, 3 of the compounds above:
HPGD inh	mol
-14%	Cc1ccc(N/C=C(/C#N)c2ccsc2)cc1C
-20%	COc1ccc(C(c2nnnn2Cc2cccs2)N2CCN(c3ccccc3F)CC2)cc1OC (stereo not given)
?	Cc1sc2c(c1C)c(=O)nc1n2Cc2ccccc2-1

(list continues)
HPGD inh	mol
-6%	CC(C)CNC(=S)NNC(=O)c1ccccc1OC(F)F
25µM*	CCOC(=O)CSc1nnnn1-c1cccc2ccccc12
?	COc1ccc(OC)c(-c2csc(NC(=O)c3ccc(OCC4CCCO4)cc3)n2)c1 (stereo not given)
6%	CN(C)c1nc2n(c(=S)n1)CCS2
3%	Cc1ccc2nc(-c3ccc(NC(=S)NC(=O)CC(C)C)cc3)sc2c1
-10%	CC(=O)Nc1ccccc1Nc1cc(C#N)c(C#N)cc1[N+](=O)[O-]
-17%	O=C(CCc1nc2ccccc2[nH]c1=O)OCC(=O)c1ccc(Cl)cc1
-21%	O=C1CC(c2ccc(F)cc2)Cc2nc(N3CCOCC3)ncc21 (stereo not given)
0%	Cn1c(=O)c2c(nc(SCCCC#N)n2Cc2c(F)cccc2Cl)n(C)c1=O
-22%	Cc1ccc(C(=O)CN2/C(=C(\O)c3ccccc3)C(=O)c3ccccc3S2(=O)=O)c(C)c1
-7%	Cc1ccnc(NC(=O)C23CC4CC(CC(C4)C2)C3)c1
6%	OCCN(Cc1ccccc1)Cc1ccc(C(F)(F)F)cc1
-3%	COc1ccc(N2C(=O)NC(NC(=O)c3ccncc3)(C(F)(F)F)C2=O)cc1 (stereo not given)
-26%	Cn1nnnc1SCC(=O)Nc1ccc(Oc2ccc(Cl)cc2)cc1
-2%	CCOC(=O)c1ccccc1NC(=O)CSc1nc2c(c(=O)n(C)c(=O)n2C)n1C
-6%	CCOC(=O)c1cnc2ccccc2c1Nc1ccc2c(c1)OCCO2
-12%	COc1ccc(C(=O)Nc2cc(OC)ccc2OC)cc1
-2%	CC1(C)CN(c2ccccc2)N(C(=O)c2ccc(F)cc2)C1=O
-19%	CCc1ccc(C2NC(=S)NC3=C2C(=O)N(c2ccccc2OC)C(c2ccc(CC)cc2)N3)cc1 (stereo not given)
-11%	Cn1ncc2c(NCCc3ccccc3)nc(Cl)nc21
?	Cc1ccc(-c2nc3ccccn3c2Nc2ccccc2)o1
-1%	O=C(NCCN1CCOCC1)c1ccc2c(c1)N(Cc1ccccc1)C(=O)CS2
-6%	CCn1c(SCC(=O)NCc2ccccc2)nnc1-c1c[nH]c2ccccc12
-11%	CCN(CC)S(=O)(=O)c1cc(-c2nnc(-c3ccc(Br)cc3)o2)ccc1Cl
-25%	COC/C=C/C1=CC2=CC(=O)C(C)(OC(=O)C3CCCC3)C(=O)C2=CO1 (stereo not given)
-6%	CCOC(=O)c1cnc2ccc(Br)cc2c1NCC(C)O (stereo not given)
?	CCSc1oc(-c2cccs2)nc1S(=O)(=O)c1ccccc1
?	O=c1c2ccccc2nc(SCc2nnc(-c3ccccc3Br)o2)n1Cc1ccco1
-11%	CCN=c1scc(-c2ccco2)n1/N=C/c1ccc(OC)c(O)c1
-9%	CS(=O)(=O)N(CC(=O)NCCSc1ccccn1)c1cccc2ccccc12
-2%	CCCN1C2=NCCN2c2ccccc21
-17%	CCCn1c(-c2ccc(OC)cc2)nc2ccccc21
-18%	CCOC(=O)CSc1nnc(-c2ccccc2)c(=O)[nH]1
?	CCOC(=O)c1cnc2c(-c3ccccc3)cnn2c1N
-10%	Cc1ccc(C(=O)Nc2ccc(OCc3ccccc3)cc2)cc1[N+](=O)[O-]
0%	Cc1cccc(NC(=O)CSc2nnc(-c3ccc(S(=O)(=O)N4CCCC4)cc3)o2)c1
-16%	O=C(Nc1ccccc1)c1cccc(C(F)(F)F)c1
-10%	O=c1[nH]cnc2nc3n(c12)CCCCC3
-11%	CC(=O)c1c(C)[nH]c(C(=O)COc2ccc(C#N)cc2)c1C
-9%	Cc1ccc(-c2cc(C(=O)NCc3cccnc3)no2)cc1
-1%	COc1ccc(C2C(C(=O)NCCN3CCOCC3)c3ccccc3C(=O)N2C2CCCCC2)cc1 (stereo not given)
-3%	Cc1cc(NC(=O)COC(=O)c2cc(S(=O)(=O)N3CCOCC3)ccc2N2CCCCC2)no1
-11%	O=C(N1CCCCC1)C12CC3CC(CC(C3)C1)C2
16µM*	Cc1nnc(SCc2ccc(Cl)cc2Cl)[nH]c1=O
-3%	COc1ccc(NC(C)=O)cc1NC(=O)CSc1nnc(-c2ccncc2)n1C
-5%	CCOc1cc(-c2noc(-c3ccncc3)n2)cc(Br)c1OC
-9%	O=C(Nc1ccc(F)c(Cl)c1)C1CCN(S(=O)(=O)c2cccnc2)CC1
-10%	O=c1c2ccccc2cnn1Cc1n[nH]c(=S)n1-c1ccc(Cl)cc1
-12%	O=S(=O)(NC1CCCCC1NCc1ccco1)c1ccccc1 (stereo not given)
-15%	CC1(C)COCN1S(=O)(=O)c1ccc(C(=O)Nc2nnc(-c3ccc(Cl)s3)o2)cc1
-11%	CCC(=O)NC(c1ccccc1OC)c1ccc2cccnc2c1O (stereo not given)
-3%	CCn1cc(Br)c(C(=O)Nc2ccc(OC)cc2)n1
-3%	C=C1C2CC[C@]3(CCC4[C@@]5(C)CCC[C@@]4(CN(CCO)C5)[C@@H]3C2)[C@@H]1O (stereo not given in full)
?	CCc1nnc(NS(=O)(=O)c2ccc(N/C=C\C(=O)c3cccc4ccccc34)cc2)s1
-17%	COc1cc(/C=C/C(=O)OCC(=O)N2CCN(S(=O)(=O)c3ccc(C)cc3C)CC2)ccc1O
-8%	O=c1c2ccccc2nc(-c2ccccc2)n1Cc1ccccc1
-14%	COc1cccc([C@@H]2Oc3ccc(OC)cc3C[C@H]2OC(=O)Nc2ccc(OC(F)F)cc2)c1
-2%	COCCCNC(=O)CN(C1CCCCC1)S(=O)(=O)c1ccc(C)cc1
-6%	O=c1cc(CO)oc(C(Nc2ccccn2)c2ccc(C(F)(F)F)cc2)c1O (stereo not given)
?	COc1cccc(C(=O)Nc2ccc(-c3nnc(-c4ccco4)o3)cc2)c1

(continued)
HPGD inh	mol
-28%	CN1CCCN(C(=O)Cc2c(Cl)cccc2Cl)c2nc3ccccc3nc21
0%	Cc1ccc(-n2c(SCc3cc(=O)n4ccsc4n3)nnc2-c2cccnc2)c(C)c1
?	COc1ccccc1-n1c(N)c(C(=O)NCC2CCCO2)c2nc3ccccc3nc21 (stereo not given)
-6%	Cc1cc(C)cc(N=c2c([N+](=O)[O-])nn(-c3cccc(Cl)c3)n2O)c1
-23%	Cc1cc(C)n(CC(=O)N/N=C/c2ccc3c(c2)OCO3)n1
-11%	Cc1ccc(-c2[nH]c3ccccc3c2SCCNC(=O)c2ccc(S(=O)(=O)N3CCOCC3)cc2)cc1
-10%	CC(C)N=C=NC(C)C
-6%	COc1ccc(OC)c(C2CC(=O)C(C)C(c3cc(OC)ccc3OC)N2)c1 (stereo not given)
?	COCCn1nc2cc(C(=O)NCc3cc(C(F)(F)F)cc(C(F)(F)F)c3)ccc2c1OC
-2%	CNc1nc(OCC(F)(F)F)nc(N2CCOCC2)n1
-15%	Cc1cccc(N2C(=O)C3CCC(c4ccccc4)CC3C2=O)c1 (stereo not given)
-5%	CC1=C2[C@H](/C=C(\C)C(=O)O)CC[C@@H](C)[C@H]2CC1
-3%	CCc1nnc(NC(=O)c2ccc(S(=O)(=O)NCC(C)C)cc2)s1
-13%	CC(=O)N1N=C(c2ccccc2)CC1c1cn(Cc2ccccc2)c2ccccc12 (stereo not given)
?	COCCNC(=O)c1cc(-c2ccccc2OC)on1
-6%	CCCCNC(=S)NNC(=O)c1c(Cl)c(C)nn1C
-22%	CCN(CC)c1ccc(/C=C(\C#N)C(=O)NCc2ccccc2)cc1
?	O=C(CC(c1ccccc1)C1CCCCC1=O)c1ccco1 (stereo not given)
?	CC(C)(C)C1CCc2c(sc(N)c2C(N)=O)C1 (stereo not given)
2%	CC(=O)OCCNC(=O)Cn1cnc2c1c(=O)n(C)c(=O)n2C
-15%	O=C(CSc1nc(-c2ccc(Cl)cc2)cs1)Nc1cccc([N+](=O)[O-])c1
-28%	Cc1ccc2oc(-c3ccccc3C(=O)O)cc(=O)c2c1
-1%	CCC(=O)Nc1ccc(S(=O)(=O)Nc2cc(C)on2)cc1
-11%	CC1=C(C(=O)OC(C)C)C2(O)C(=O)c3ccccc3C2(O)N1 (stereo not given)
-6%	O=C(Nc1nnc(C2CCCC2)s1)C1CCN(S(=O)(=O)c2ccc(Cl)cc2)CC1
-5%	CC12CCCCC1(O)[N+](=O)C1=C(CCCC1)N2[O-] (stereo not given)
-1%	CC(C)NC(=O)CSc1nnc2sc3ccccc3n12
-11%	O=C(NCCN1CCOCC1)N1c2ccccc2Sc2ccccc21
4%	O=C(NCC(c1cccs1)N1CCOCC1)c1ccc(Cl)c([N+](=O)[O-])c1 (stereo not given)
-15%	CCOc1ccccc1C(=O)NCC(=O)OCC(=O)N1C(C)CCCC1C (stereo not given)
-12%	CCOC(=O)CNc1c(-c2ccc(OC)cc2)nc2ccc(Cl)cn12
?	Cc1cc2c(c(N)n1)c(=O)oc1ccccc12
1.1µM*	COCCCNC(=O)c1ccc(N(C)S(=O)(=O)c2ccc(OC)cc2)cc1
18µM*	O=C(c1ccc(NS(=O)(=O)c2ccccc2)cc1)N1CCCC1
-27%	O=C(Nc1nc(NC(=O)c2ccco2)n(-c2ccccc2)n1)c1ccccc1
-1%	CC(=O)c1nn(-c2ccccc2)cc1C(=O)c1ccc(Br)cc1
-14%	O=C(Cc1c(C(=O)O)[nH]c2ccccc12)Nc1ccc2c(c1)OCO2
18µM*	C=CCSc1nnc(NC(=O)c2ccc(S(=O)(=O)NCC3CCCO3)cc2)s1 (stereo not given)
-7%	COc1ccccc1-c1nccc(NCc2cccc(C)c2)n1
-23%	COC(=O)C1=C(C(=O)OC)SC(=C2C(=S)C(C)(C)N(C(=O)CC(C)C)c3ccccc32)S1
-26%	COC(=O)c1cc(C(=O)OC)cc(N2C(=O)CN=C2Nc2nc(C)cc(C)n2)c1
1.4µM*	O=C1C2C3C=CC(CO)(O3)C2C(=O)N1c1ccc(-c2ccccc2)cc1 (stereo not given)
-14%	Cc1ccc(Nc2nnc(SC3CCOC3=O)s2)c(C)c1 (stereo not given)
3%	CC(C)CCNc1cc(=O)n(C)c(=O)n1C
-18%	Cc1cc2nc(-c3ccc(SCC(=O)Nc4nccs4)nc3)[nH]c2cc1C
-9%	N[C@@H](Cc1ccc(O)cc1)C(=O)O
-10%	Cc1cccc(OCC(=O)OCC(=O)c2c(N)n(C)c(=O)n(C)c2=O)c1C
3%	CC(C)NC(=O)C1CC(=O)N(c2ccc(F)c(Cl)c2)C1 (stereo not given)
-23%	O=C1CCCC/C1=C\Nc1ccc(O)cc1
-13%	Cn1cnnc1SCC(=O)NCc1cccc(C(F)(F)F)c1
-4%	COc1ccc(N/C=C2\CCOC2=O)cc1
-22%	COC(=O)c1cn(CCOc2ccccc2F)c2ccccc12

Structures above containing fluorine (17):
HPGD inh	mol
-19%	CCOc1ccc2nc(NC(=O)CN3CCC(n4nnc5cc(F)ccc54)CC3)sc2c1
-20%	COc1ccc(C(c2nnnn2Cc2cccs2)N2CCN(c3ccccc3F)CC2)cc1OC (stereo not given)
-6%	CC(C)CNC(=S)NNC(=O)c1ccccc1OC(F)F
-21%	O=C1CC(c2ccc(F)cc2)Cc2nc(N3CCOCC3)ncc21 (stereo not given)
0%	Cn1c(=O)c2c(nc(SCCCC#N)n2Cc2c(F)cccc2Cl)n(C)c1=O
6%	OCCN(Cc1ccccc1)Cc1ccc(C(F)(F)F)cc1
-3%	COc1ccc(N2C(=O)NC(NC(=O)c3ccncc3)(C(F)(F)F)C2=O)cc1 (stereo not given)
-2%	CC1(C)CN(c2ccccc2)N(C(=O)c2ccc(F)cc2)C1=O
-16%	O=C(Nc1ccccc1)c1cccc(C(F)(F)F)c1
-9%	O=C(Nc1ccc(F)c(Cl)c1)C1CCN(S(=O)(=O)c2cccnc2)CC1
-14%	COc1cccc([C@@H]2Oc3ccc(OC)cc3C[C@H]2OC(=O)Nc2ccc(OC(F)F)cc2)c1
-6%	O=c1cc(CO)oc(C(Nc2ccccn2)c2ccc(C(F)(F)F)cc2)c1O (stereo not given)
?	COCCn1nc2cc(C(=O)NCc3cc(C(F)(F)F)cc(C(F)(F)F)c3)ccc2c1OC
-2%	CNc1nc(OCC(F)(F)F)nc(N2CCOCC2)n1
3%	CC(C)NC(=O)C1CC(=O)N(c2ccc(F)c(Cl)c2)C1 (stereo not given)
-13%	Cn1cnnc1SCC(=O)NCc1cccc(C(F)(F)F)c1
-22%	COC(=O)c1cn(CCOc2ccccc2F)c2ccccc12

Compound activity from PubChem.
